Screens as filed in PubChem.
VDR inhibitor: vitamin D3 receptor (human) inhibition. VDR-SRC2-3 peptide fluorescence polarization, 2 h. P11473. 400,000 compounds, 0.93% hits. Potency, µM, for inactives: max response, negative = inhibition, actives largely listed as inhibitors. AID 504847; active = well fitted inhibition curve with a large enough effect; inconclusive = small, poorly fitted or top-dose-only effect, or another doubt; inactive = no such curve, though single readings can be large or run the other way; note: series mostly up to about 120 µM
Target sequence (P11473 whole entry, looked up): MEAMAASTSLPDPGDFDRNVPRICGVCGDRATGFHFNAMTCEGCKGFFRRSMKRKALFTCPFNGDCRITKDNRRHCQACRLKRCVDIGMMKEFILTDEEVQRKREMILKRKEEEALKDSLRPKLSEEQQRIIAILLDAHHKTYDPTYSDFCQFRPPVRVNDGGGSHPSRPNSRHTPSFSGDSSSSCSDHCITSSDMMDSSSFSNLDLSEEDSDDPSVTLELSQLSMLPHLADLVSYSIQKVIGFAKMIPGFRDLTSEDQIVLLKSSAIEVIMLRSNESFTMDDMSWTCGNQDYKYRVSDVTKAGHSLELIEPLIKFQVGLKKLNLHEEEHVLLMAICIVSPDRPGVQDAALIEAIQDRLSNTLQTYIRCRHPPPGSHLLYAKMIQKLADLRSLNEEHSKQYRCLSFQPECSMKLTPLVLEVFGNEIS
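Fluorescence polarization assay of small-molecule disruption of VDR binding to coregulator peptide SRC2-3. Compounds and controls pin-transferred, then read after 2 h incubation at ambient room temperature.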
* = called active by the depositor; ? = inconclusive; & = joins results of further samples; [ ] = remark or other dose. % is set by controls: 0 for no effect and ±100 for the full control effect; potency is the fitted concentration of half-maximal effect. This is a subset; the hit share may differ from the screen's.

SMILES	VDR inhibitor
O=C(Nc1ccc(C(=O)N2CCCCC2)cc1)c1cccs1	-6.7%
CC1Cc2ccccc2N1C(=O)CSc1nnc(-c2ccc(S(=O)(=O)N3CCCC3)cc2)n1C (centres undefined)	10.8%
COc1cccc(C(=O)O/N=C(\C)c2cnccn2)c1	-22.2%
CCCOC(=O)C1C2C=C[C@]3(CN(CCc4ccccc4)C(=O)[C@H]13)O2 (some centres undefined)	10.9%
COc1ccccc1N1CCN(C(CNC(=O)c2ccc3c(c2)OCO3)c2cccnc2)CC1 (centres undefined)	-4.0%
O=C(Nc1ccon1)c1sc2ccccc2c1Cl	2.4%
Cc1ccc(S(=O)(=O)c2cn(Cc3ccccc3F)c3cc4c(cc3c2=O)OCO4)cc1	0.7%
CCC(CC)COC(=O)C1=C(C)NC(=O)NC1c1ccc([N+](=O)[O-])cc1 (centres undefined)	-14.3%
Cc1cccc2cc(COC(=O)C(C)(C)C)c(=O)[nH]c12	-3.5%
O=C(Nc1ccc2c(c1)OCCO2)c1ccccc1	-0.2%
CC(OC(=O)C1=COCCO1)C(=O)c1ccc(Br)cc1 (centres undefined)	3.3%
COc1cccc(CNc2cnc3ccccc3c2)c1O	10.9%
O=C(N/N=C/c1ccc(-c2ccc(Cl)c(C(=O)O)c2)o1)c1cc2c(ccc3ccccc32)o1	-7.7%
CCS(=O)(=O)N1CCN(C(=O)c2ccco2)CC1	-14.5%
CC(C)(C)NC(=O)C(c1ccc(F)cc1)N(Cc1cccs1)C(=O)c1ccc(CN2CCOCC2)o1 (centres undefined)	-0.9%
COc1ccc(N2CCN(C(=O)CN(C)S(=O)(=O)c3cccs3)CC2)cc1	-0.6%&0.1%
CCOc1ccc(CCNC(=O)c2cc3c(s2)CS(=O)(=O)C3)cc1OCC	7.1%
COc1cc2ccnc(Cc3cccc(OC)c3OC)c2cc1OC	-13.7%
CCOC(=O)c1c(C)[nH]c(C(=O)COC(=O)c2ccccn2)c1C	1.2%
CCN(CC)S(=O)(=O)c1cccc(-c2n[nH]c(=S)n2/N=C/c2ccc(OC(F)F)cc2)c1	-1.6%
NC(=O)CSc1nnc(-c2ccccc2)c(-c2ccccc2)n1	2.7%
CCC(C)c1ccc(NC(=S)NC(C)C2CCCO2)cc1 (centres undefined)	-25.9%
COCCn1c(-c2ccccc2)c(C)n2c3c(=O)n(C)c(=O)n(C)c3nc12	9.7%
CCCCn1c(N)c(N(CC(C)C)C(=O)CC2CCCC2)c(=O)[nH]c1=O	-3.2%
Cc1ccccc1CNS(=O)(=O)c1ccc2c(c1)C(C)(C)C(=O)N2C	-6.5%

16 entries out of the list, arranged by formula weight, smallest number first:
SMILES	VDR inhibitor
O=C(Nc1ccc2c(c1)OCCO2)c1ccccc1	-0.2%
Cc1cccc2cc(COC(=O)C(C)(C)C)c(=O)[nH]c12	-3.5%
COc1cccc(CNc2cnc3ccccc3c2)c1O	10.9%
CCC(C)c1ccc(NC(=S)NC(C)C2CCCO2)cc1 (centres undefined)	-25.9%
O=C(Nc1ccc(C(=O)N2CCCCC2)cc1)c1cccs1	-6.7%
NC(=O)CSc1nnc(-c2ccccc2)c(-c2ccccc2)n1	2.7%
COc1cc2ccnc(Cc3cccc(OC)c3OC)c2cc1OC	-13.7%
CC(OC(=O)C1=COCCO1)C(=O)c1ccc(Br)cc1 (centres undefined)	3.3%
Cc1ccccc1CNS(=O)(=O)c1ccc2c(c1)C(C)(C)C(=O)N2C	-6.5%
CCC(CC)COC(=O)C1=C(C)NC(=O)NC1c1ccc([N+](=O)[O-])cc1 (centres undefined)	-14.3%
CCOc1ccc(CCNC(=O)c2cc3c(s2)CS(=O)(=O)C3)cc1OCC	7.1%
Cc1ccc(S(=O)(=O)c2cn(Cc3ccccc3F)c3cc4c(cc3c2=O)OCO4)cc1	0.7%
O=C(N/N=C/c1ccc(-c2ccc(Cl)c(C(=O)O)c2)o1)c1cc2c(ccc3ccccc32)o1	-7.7%
COc1ccccc1N1CCN(C(CNC(=O)c2ccc3c(c2)OCO3)c2cccnc2)CC1 (centres undefined)	-4.0%
CC1Cc2ccccc2N1C(=O)CSc1nnc(-c2ccc(S(=O)(=O)N3CCCC3)cc2)n1C (centres undefined)	10.8%
CC(C)(C)NC(=O)C(c1ccc(F)cc1)N(Cc1cccs1)C(=O)c1ccc(CN2CCOCC2)o1 (centres undefined)	-0.9%

(more compounds)
SMILES	VDR inhibitor
CC(C)C(=O)Nc1nnc(Sc2ccc(N(C)C)cc2)s1	11.4%
Cc1ccc(OCCOCCN2CCCCC2)c([N+](=O)[O-])c1	-0.6%
O=C(CN1C(=O)C2C3C=CC(C3)C2C1=O)Nc1cccc2c1CCCC2 (centres undefined)	-8.3%
CCOC(=O)c1cccc(S(=O)(=O)N2CCOCC2)c1	10.8%
C[C@H]1C=CC(=O)O[C@H]1c1ccccc1	-1.4%&-6.1%
Cc1ccc(NC(=O)/C(=C/c2cccc([N+](=O)[O-])c2)NC(=O)C2CCCCC2)c(C)c1	1.7%
CC1CC(=O)NC(=O)N1Cc1ccccc1 (centres undefined)	3.9%
COc1ccc(NC(=O)c2cccc(-c3ccc(O)cc3)c2)cn1	-22.8%
O=C(Nc1cccc(NC(=O)C2CCCO2)c1)C1CCCO1 (centres undefined)	30.1%[activator]
O=C(O)CCCC(=O)OCCc1cc2ccccc2c(=O)o1	-3.2%
CCOc1ccc(NC(=O)CN(C)c2ccc(S(=O)(=O)N(C(C)C)C(C)C)cn2)cc1OCC	20.0%
CCc1ccc(NC(=O)CCc2ccc(CC)o2)cc1	-13.1%
Cc1nn(C(C)C(=O)NC2C(=O)N3C(C(=O)O)=C(CSc4nnnn4C)CSC23)cc1Cl (centres undefined)	-7.7%
CCCn1nc(NC(=O)c2ccco2)c2cc3ccc(C)cc3nc21	6.8%
COc1ccccc1NC(=O)CSc1nnc(Cc2cccn2C)n1CCc1ccccc1	-10.8%
Cc1cccn2c(=O)c(C(=O)NCCCN3CCCCC3C)c(O)nc12 (centres undefined)	24.2%&13.9%
COc1cccc(NC(=O)CSCC(=O)Nc2ccccc2)c1	-5.8%
CN(Cc1ccccn1)C(=O)CC1C(=O)NCCN1Cc1cccc(Oc2ccccc2)c1 (centres undefined)	-4.2%
O=C(O)/C=C\c1ccccc1Oc1cccc(Cl)c1	-11.2%
COc1ccc(-c2nc3cnc(Nc4cccc(OC)c4)nc3n(CCC#N)c2=O)cc1	2.5%
COc1cc(OC)cc(C(=O)NCCc2csc(-c3ccc(C(F)(F)F)cc3)n2)c1	-9.6%
Cc1cc2c(cc1S(=O)(=O)NCc1ccc(Cl)cc1)OCC(=O)N2	-3.0%
CCOc1ccc(NC(=O)CSc2nnc(Cn3cnc([N+](=O)[O-])n3)n2CC)cc1	-12.2%
NS(=O)(=O)c1ccc(-n2cccc2C=O)cc1	-14.4%
CC(O)CN(CC(C)O)c1ccc2c(c1)Cc1cc([N+](=O)[O-])ccc1-2 (centres undefined)	8.4%
Next section
SMILES	VDR inhibitor
CC(C)OC(=O)c1nnn(-c2nonc2N)c1CN1CCc2ccccc2C1	2.6%
COc1cc2cnc(-c3ccccc3)c(C(=O)c3ccc(F)cc3)c2cc1OC	?
O=C(O)CCN1C(=O)/C(=C\c2cccc(OCC(=O)Nc3ccc(Cl)cc3)c2)SC1=S	14.1µM*
Nc1ncc(-n2cncn2)c(-c2ccccc2)n1	3.1%
CCOc1ccc(NC(=S)NCCCn2ccnc2)cc1	1.0%
CCOC(=O)CC(NC(=O)c1cc2cc(Cl)ccc2oc1=O)c1ccc(C)cc1 (centres undefined)	7.2%
CCN(CC)S(=O)(=O)c1ccc(NC(=O)COc2c(OC)cccc2OC)cc1	20.2%
COc1ccc(CN2CCN(C(C)C(=O)N(C)Cc3cccc(F)c3)CC2)cc1OC (centres undefined)	1.4%
CC1=C(C(=O)NCc2ccccc2F)C2(CCCCC2)OC1=O	3.5%
O=C(NCC(c1ccco1)N1CCN(c2ccccc2F)CC1)C(=O)NC1CC1 (centres undefined)	-24.0%
COc1ccccc1/C=C1\SC(=S)N(CCC(=O)N2CCN(C)CC2)C1=O	-14.7%
CC1CCCCN1c1nnc(NC(=O)Nc2ccccc2F)s1 (centres undefined)	25.8%
N#C/C(=C/c1ccc(N2CCOCC2)o1)c1ccc(Cl)cc1	?
COc1ccc(CC(=O)Nc2ccc(C(C)=O)cc2)cc1	-14.3%
COc1ccc2c(c1)CCc1c(C(=O)Nc3ccn(Cc4ccc(C)cc4)n3)noc1-2	2.1%
CN(C(=O)CSc1nc2cc([N+](=O)[O-])ccc2n1-c1ccc(F)cc1)C1CCS(=O)(=O)C1 (centres undefined)	-4.6%
CCCCc1nn2c(=O)cc(COC(=O)c3ccccc3NC(=O)c3ccccc3OC)nc2s1	11.7%
CCC(C)NC(=O)Cn1ccc2cc(S(=O)(=O)N3CCCCC3)ccc21 (centres undefined)	11.1%
CCN(CC)CCN(C(=O)c1ccc(S(=O)(=O)N(C)C2CCCCC2)cc1)c1nc2ccc(OC)cc2s1	-3.1%
Cc1cccc(NC(=S)NC(=O)CC2CC(C)(C)OC2=O)c1 (centres undefined)	-12.4%
COc1ccc(-c2csc(NC(=O)Cn3nc(C)cc3C)n2)cc1	-1.5%
COC(=O)C1C(=O)CC(C)(O)C(C(=O)OC)C1/C=C/c1ccccc1 (centres undefined)	-12.2%
O=C(CCc1nnc2n(Cc3ccccc3Cl)c(=O)c3ccccc3n12)NCCCN1CCOCC1	5.1%
COc1cc(C(=O)Nc2ccccc2SCc2cc(=O)n3nc(C)sc3n2)cc(OC)c1OC	?
CCCCn1c(N)c(N(CC(C)C)C(=O)c2cccc(S(=O)(=O)N3CC(C)OC(C)C3)c2)c(=O)[nH]c1=O (centres undefined)	-1.0%
(cont.)
SMILES	VDR inhibitor
Cc1cc(C)n(C(=O)c2ccc(Cn3nc(C)c(Br)c3C)o2)n1	11.6%
Cc1ccc(Nc2nnc(C)c(=O)[nH]2)cc1	7.9%
COc1ccc2nc(C)cc(SCC(=O)NNC(=O)COc3ccccc3)c2c1	-2.3%
Cn1nnnc1Sc1ncnc2scc(-c3ccc(Br)cc3)c12	-3.4%
c1ccc2[nH]c(-c3nc4ccccc4[nH]3)nc2c1	14.6%
COc1ccc2cc(C(=O)/C=C/c3cc(OC)c(O)c(OC)c3)ccc2c1	-20.8%
C[n+]1ccccc1/C=C/c1cc(Br)ccc1O	8.6%
C(=N\N1CCN(Cc2ccccc2)CC1)/c1ccc(-c2ccccc2)cc1	-5.5%
S=C(NCCc1ccccc1)N/N=C/c1cccs1	-8.1%
Cc1cccc(C)c1OCC(=O)N/N=C/c1cccnc1	-7.3%
COc1cccc(NC(=O)C(=O)c2cn(CC(=O)N3CCCC3)c3ccccc23)c1	3.3%
Cc1ccc(C)c(N2CCN(S(=O)(=O)c3ccc4[nH]c(=O)c(=O)[nH]c4c3)CC2)c1	-2.3%
O=C(c1ccc(N2C(=O)C3C4c5ccccc5C(c5ccccc54)C3C2=O)cc1)N1CCOCC1 (centres undefined)	-0.6%
CCOC(=O)c1ccc(NC(=O)c2c(NCc3cc(OC)ccc3OC)sc3c2CCC3)cc1	21.6%
Cn1nccc1C(=O)N/N=C/c1c(O)ccc2ccccc12	-3.3%
CCN(CC)C(=O)c1ccc(Nc2nnc(-c3ccc(O)cc3)c3ccccc23)cc1	-10.1%
CCOc1ccc(N2CC(C(=O)Nc3ccc(S(=O)(=O)N4CCCCC4)cc3)CC2=O)cc1 (centres undefined)	-16.9%
O=C(CN(Cc1ccco1)C(=O)c1ccccc1)Nc1ccc(Cl)c(Cl)c1	-5.8%
O=C1CCC(=O)N1CC(=O)N1c2ccccc2Sc2ccccc21	11.1%
COc1ccc(S(=O)(=O)Nc2c(C)cc(C)cc2C)c2cccnc12	11.1%
Cc1ccc(CCNC(=O)C2CCCN(S(=O)(=O)c3c(C)noc3/C=C/N(C)C)C2)cc1 (centres undefined)	-26.5%
Cc1cnn(-c2cc(N/N=C/c3ccccc3Cl)ncn2)c1	3.2%
O=[N+]([O-])c1cc(C(F)(F)F)ccc1N1CCCC(O)C1 (centres undefined)	4.1%
Cc1cc(OCc2cc(C(=O)NCC3(C)COC3)no2)cc(C)c1Cl	-4.7%
CC1(C)CC(=O)C(C=Nc2cc(C(=O)c3ccccc3)ccc2N)=C(O)C1	-19.6%
The results go on:
SMILES	VDR inhibitor
O=C(COc1ccc(Cl)cc1Cl)NCCCn1ccnc1	-7.4%
COc1ccc(S(=O)(=O)N2CCCCC2)cc1NC(=O)Cc1c[nH]c2ccccc12	-10.1%
COc1ccc(CCNC(=O)C(=O)NCc2ccc(C)cc2)cc1OC	2.8%
Cc1ccc(N(CC(=O)Nc2cc(C)ccc2C)S(=O)(=O)c2c(C)noc2C)cc1	2.2%
CCCc1nc2sc3c(N4CCCCC4)ncnc3c2c2c1CCCC2	-1.7%
CCc1nnc(NC(=O)C2CCN(S(=O)(=O)Cc3ccccc3)CC2)s1	-5.4%
COc1ccc(-c2csc(Nc3ccccc3)[n+]2Cc2ccccc2)cc1	?
Cn1c(=O)c2[nH]c(Cc3cccc4ccccc34)nc2n(C)c1=O	11.8%
COc1ccc(CNC(=O)C2CCCN(c3nn4c(=O)cc(C)nc4s3)C2)cc1 (centres undefined)	-14.2%
O=C(Nc1ccccc1-c1ccccc1)C1CCCN(c2ncccn2)C1 (centres undefined)	-0.6%
COC(=O)c1ccc(N2C(=O)CC(N(C)CCc3ccc(OC)c(OC)c3)C2=O)cc1 (centres undefined)	0.8%
Cc1cc(C)cc(Oc2nc(C(F)(F)F)nc3ccccc23)c1	13.7%
COCCn1c(=S)[nH]c2cc(C(=O)N(CCO)Cc3ccccc3)ccc2c1=O	1.0%
Cc1ccccc1NC(=S)N(Cc1ccccn1)Cc1ccccc1Cl	-13.6%
Cc1cc(C)c(S(=O)(=O)Nc2cc(Cl)c3oc4c(c3c2)C(=O)CCC4)cc1C	9.5%
CN(C)CCNC(=O)c1ccc2c(c1)N(Cc1c(F)cccc1Cl)C(=O)c1ccccc1S2	-19.1%
COc1cccc(/C=N/n2c(SC)nnc2-c2ccccc2)c1O	20.4%
Oc1ccc(/C=N/Nc2nccnc2Cl)c(O)c1	-14.9%
CCn1cc(C(=O)NCC(C)C)c(=O)c2cc(F)c(N3CCN(C)CC3)cc21	0.7%
